# D2 potentiator = positive allosteric modulators of human D2 dopamine receptor | DiscoveRx D2 beta-arrestin cells, luminescence, 90 min; 100% = 57 uM dopamine signal | potentiation, % (test concentration not listed) | 0.23% of 360,000 active; active = potentiation of 50% or more; inconclusive = 30% to 50%; inactive = 30% or less;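 also: compound concentration not given in the record; tested on top of an EC20 dose of dopamine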
# Target sequence (P14416 whole entry, looked up): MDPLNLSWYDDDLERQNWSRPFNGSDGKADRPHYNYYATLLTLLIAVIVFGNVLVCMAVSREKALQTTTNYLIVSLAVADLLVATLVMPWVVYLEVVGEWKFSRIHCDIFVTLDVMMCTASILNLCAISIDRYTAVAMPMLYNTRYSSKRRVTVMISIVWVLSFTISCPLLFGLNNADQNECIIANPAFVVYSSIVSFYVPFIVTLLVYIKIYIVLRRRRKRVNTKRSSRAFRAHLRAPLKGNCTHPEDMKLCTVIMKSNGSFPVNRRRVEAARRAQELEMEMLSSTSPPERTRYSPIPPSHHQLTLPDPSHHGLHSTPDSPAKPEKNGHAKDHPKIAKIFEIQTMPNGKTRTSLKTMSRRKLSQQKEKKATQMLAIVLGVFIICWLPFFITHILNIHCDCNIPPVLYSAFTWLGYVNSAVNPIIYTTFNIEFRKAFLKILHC
#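 PathHunter beta-arrestin assay in DiscoveRx D2 cells. Compounds were added with an EC20 of dopamine (50 nM final) for 90 min at 37 deg C. Luminescence was read 1 h after detection reagent, with 57 uM dopamine as the EC100 control.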
# CtBP-E1A blk = CtBP/E1A binding inhibition; AlphaScreen GST-E1A/His-CtBP binding, 1536-well; hits give low values; control for the full effect not named in the record; activity change, % (no concentration beside the values); 0.49% of 340,000 active; AID 651724; in the data active means activity change below about -65%; inconclusive means about -30% to -65%; inactive means above about -30%; also: % is scaled to controls: 0 for no effect and ±100 for the full control effect; compound concentration not given in the record
#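 Protein mix (5X: 125 nM each GST-E1A, His-CtBP) was incubated with pinned compound 2 h at 37 deg C in dark, in 50 mM Tris pH 8.0 buffer with 300 mM NaCl. Glutathione donor and nickel acceptor beads followed; AlphaScreen signal read after 1 h.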
# PINK1 modulator = changes PINK1 expression | AID 624263 | PINK1 immunofluorescence, high-content cytometry, 24 h | Potency, µM (titrated, usually from 76.6 µM), inactives show at the highest dose activation (PINK1 increase), actives largely listed as activators | 0.2% of 410,000 active; active = well fitted activation curve with a large enough effect; inconclusive = small, poorly fitted or top-dose-only effect; inactive = flat fitted curve, though single readings scatter; cell line not stated here;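 also: potency is read from the fitted curve at half-maximal effect; % of control where 0% means no effect; nearly all actives have a fitted effect of over 65% in size; a mitochondrial uncoupler was the plate control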
#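 Decision-based qHTS: stable cells, 24 h exposure to five compound concentrations, CCCP as control. Fixed cells stained for PINK1 plus nuclear, mitochondrial and cell markers, cytometer read.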
# TRPML1 agonist = activates the human TRPML1 channel; TRPML1-expressing cells, Ca2+ dye fluorescence, FDSS; host cell line not named in the record; reference of the full effect not given here; activation, % (test concentration not listed); 0.12% of 410,000 active; AID 624414; in the data active = activation above about 50%; inconclusive = about 30% to 50%; inactive = below about 30%; also: 0% is about no effect; the text of the record puts the active cut at 80%
# Target sequence (Q9GZU1 whole entry, looked up): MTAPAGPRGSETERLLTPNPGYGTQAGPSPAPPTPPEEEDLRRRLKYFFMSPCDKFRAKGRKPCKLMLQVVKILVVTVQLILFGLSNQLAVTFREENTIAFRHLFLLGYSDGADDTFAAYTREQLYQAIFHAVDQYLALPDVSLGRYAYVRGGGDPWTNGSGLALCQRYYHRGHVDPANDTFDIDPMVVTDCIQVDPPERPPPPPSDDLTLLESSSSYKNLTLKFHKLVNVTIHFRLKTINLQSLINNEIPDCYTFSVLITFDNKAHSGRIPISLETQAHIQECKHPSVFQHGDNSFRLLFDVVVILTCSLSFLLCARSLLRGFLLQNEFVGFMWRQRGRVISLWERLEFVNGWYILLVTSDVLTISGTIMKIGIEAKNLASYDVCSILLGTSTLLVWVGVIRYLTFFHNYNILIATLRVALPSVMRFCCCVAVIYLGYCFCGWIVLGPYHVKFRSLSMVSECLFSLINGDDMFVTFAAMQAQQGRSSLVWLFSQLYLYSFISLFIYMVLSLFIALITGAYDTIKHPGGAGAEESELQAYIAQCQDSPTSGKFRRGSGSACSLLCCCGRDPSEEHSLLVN
#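 Kinetic FDSS Ca2+ read in Tet-induced TRPML1-DL cells (ABD Ca8 dye plus quencher, 45-90 min RT loading): baseline, then compound, then 110 s agonist window; EC80 agonist 54-4 at 4uM final added afterwards for a 110 s antagonist window.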
# Six1-Eya2 inh = blocks human Six1 binding to Eya2 | AID 651725 | AlphaScreen GST-Six1/His-Eya2 binding, biochemical; hits give low values; control for the full effect not named in the record | 0.56% of 360,000 active | activity change, % (no concentration beside the values); in the data active = activity change below about -65%; inconclusive = about -30% to -65%; inactive = above about -30%; also: % is scaled to controls: 0 for no effect and ±100 for the full control effect; compound concentration not given in the record
#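 Compounds are tested against tagged Six1 and Eya2 proteins bridged by glutathione donor and nickel acceptor beads; after a one-hour incubation at 37 °C without light, AlphaScreen emission is recorded.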
# D2 ag = human D2 receptor agonism in beta-arrestin assay; DiscoveRx PathHunter D2 beta-arrestin, luminescence, 90 min; 100% = 57 uM dopamine signal; activation, % (test concentration not listed); 0.084% of 360,000 active; in the data active = activation above about 40%; inconclusive = about 15% to 40%; inactive = below about 15%; also: compound concentration not given in the record; the text of the record calls up to 30% inactive
#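 Agonist mode: compounds alone added to overnight-plated D2 PathHunter cells for 90 min at 37 C, with 57 uM final dopamine (EC100) defining full response. Beta-arrestin recruitment detected by chemiluminescent reagent, read after 1 h at ambient temperature.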
# * hit, by the source's call; ? = inconclusive; nt = not tested or not shown; & = joins results of further samples; [ ] = another dose, or the depositor's remark.
SMILES,D2 potentiator,CtBP-E1A blk,PINK1 modulator,TRPML1 agonist,Six1-Eya2 inh,D2 ag
CC(=O)c1ccc(-c2nnc(CCC(=O)N(C)Cc3c(C)nc4ccccn34)o2)s1,-1.6,4.3,2.5%,0.0,20.1,2.2
O=C(NCc1ccc2c(c1)OCO2)C1CCCN(C(=O)c2ccc(Cl)cc2)C1 (stereo unspecified),-10.1,1.8,3.3%,1.0,1.6,-0.9
C/C(=N/NC(=O)CN1CCN(S(=O)(=O)c2ccc(Br)cc2)CC1)c1cccnc1,21.6,1.9,-0.5%,1.5,1.0,-0.7
NS(=O)(=O)c1cccc(NC(=O)c2ccc3nc[nH]c3c2)c1,-4.7,?,-0.5%,-0.3,?,-3.6
CC(=O)c1c(C)[nH]c(C(=O)NC2CCSc3ccccc32)c1C (stereo unspecified),-15.7,-6.2,-0.8%,0.2,-16.8,1.4
CCN(Cc1nc(-c2ccccc2)no1)C(=O)COc1cccc(OC)c1,-10.6,-21.1,1.0%,0.5,2.0,-0.2
O=C1C2C3C=CC(C4CC34)C2C(=O)N1/N=C/c1ccc(-c2cccc([N+](=O)[O-])c2)o1 (stereo unspecified),3.4,-5.1,1.0%,-0.8,0.0,-1.9
CCCCN(C(=O)c1cccc(S(=O)(=O)N(C)c2ccc(C)cc2)c1)c1c(N)n(CC(C)C)c(=O)[nH]c1=O,-1.3,2.4,0.4%,-0.7,-2.2,-2.4
COc1ccc(C(C(=O)NCC2CCCO2)N(C(=O)Cn2nnc3ccccc32)c2ccc(NC(C)=O)cc2)cc1OC (stereo unspecified),-4.0,6.6,0.9%,0.2,4.1,7.1
CC(C)Cn1c(=O)c2c(nc3n2CCCN3Cc2ccccc2)n(C)c1=O,-6.3,1.1,-0.5%,-1.6,?,-3.2
COc1ccc(NC(=O)N(C)C[C@@H]2OCc3cn(nn3)CCCC(=O)N([C@H](C)CO)C[C@H]2C)c(OC)c1,nt,-7.1,-0.1%,nt,2.7,-1.4
COc1cc(C(=O)O/N=C(\N)Cc2ccc([N+](=O)[O-])cc2)cc(OC)c1OC,?,-1.0,-3.9%,-0.4,-1.9,?
O=C(/C=C\c1ccccc1)Oc1cccc2cccnc12,-73.4,nt,1.8%,-0.2,-67.3*,-5.6
O=[N+]([O-])c1cccc(/C=C/c2nc3ccc([N+](=O)[O-])cc3[nH]2)c1,-18.1,0.0,-3.7%,2.5,2.9,-0.2
COCCNC(=O)c1c[nH]n2c(=O)cc(C3CCN(C(=O)OC(C)(C)C)CC3)nc12,0.7,7.6,2.5%,-0.4,-0.9,1.2
CCN1C(=NCc2cc(OC)c(OC)c(OC)c2)N[C@@H](c2ccccc2)C(C(=O)OC)=C1C,-9.1,-15.5,-0.7%,0.2,7.3,-4.0
CCNc1ccc(C2(O)C(=O)c3ccccc3C2=O)cc1,-2.8,2.0,1.1%,-0.5,-1.1,-5.0
Cc1ccc(C(=O)N/C(=C\c2ccccc2)C(=O)NCCN2CCOCC2)cc1,-14.2,3.3,1.2%,-0.3,8.0,-3.7
NC(=S)N/N=C/c1ccc(-c2ccc(Cl)c(Cl)c2)o1,-9.9,-2.3,-1.3%,1.5,0.0,-2.9
COc1ccc(-c2nc(SC(CC(=O)NCCO)c3cccs3)n[nH]2)cc1 (stereo unspecified),2.3,2.4,-0.6%,-0.2,-0.7,-0.2
COc1ccc(CCNC(=O)CSCc2ccc(Cl)cc2)cc1OC,-15.0,5.9,1.8%,0.0,1.6,0.6
CC(NC(=O)CSc1cccc(C(F)(F)F)c1)c1ccccc1 (stereo unspecified),-9.0,nt,0.6%,1.3,8.7,-3.5
Cc1ccc(NC(=O)[C@H](Cc2c[nH]c3ccccc23)NC(=O)[C@@H]2Cc3ccccc3CN2)c(C)c1,-7.4,5.1,1.3%,2.6,-4.1,-1.4
COc1ccc([C@H]2CC(=O)C=C(c3cc(F)ccc3F)C2)cc1OC,6.5,2.1,0.4%,1.5,-0.8,2.2

# Full records as entered above. Order of screens: D2 potentiator, CtBP-E1A blk, PINK1 modulator, TRPML1 agonist, Six1-Eya2 inh, D2 ag
# Record of `CCN1C(=NCc2cc(OC)c(OC)c(OC)c2)N[C@@H](c2ccccc2)C(C(=O)OC)=C1C` = -9.1, -15.5, -0.7%, 0.2, 7.3, -4.0
# Record of `COc1ccc([C@H]2CC(=O)C=C(c3cc(F)ccc3F)C2)cc1OC` = 6.5, 2.1, 0.4%, 1.5, -0.8, 2.2

# Following part:
SMILES,D2 potentiator,CtBP-E1A blk,PINK1 modulator,TRPML1 agonist,Six1-Eya2 inh,D2 ag
Cc1c(C(C)(C)C)s/c(=N/S(=O)(=O)c2ccccc2)n1C,-1.9,nt,-1.2%,-0.6,4.6,1.2
Cc1ccc(C(=O)Nc2c(C)cc(C)c3cccnc23)cc1,-16.1,nt,1.0%,2.9,18.2,-3.2
CC(C)NC(=O)CN1C(=O)c2cccc3cccc1c23,-2.5,5.4,1.8%,-0.3,4.6,-0.5
CS(=O)(=O)c1ccc(Cl)c(NC(=O)c2cccc(Br)c2)c1,-3.6,-9.6,0.4%,-0.2,12.0,-6.4
CC1(C)SC(=S)N(/N=C/c2ccccc2O)C1N(O)C(=O)Nc1ccccc1 (stereo unspecified),-2.3,?,?,1.6,-22.0,1.7
CCc1cccc(NS(=O)(=O)c2ccc3c(c2)NC(=O)C(C)S3)c1 (stereo unspecified),9.6,-3.1,4.9%,-0.7,-0.9,1.1
C/C(=N\Nc1ccc(Cl)cc1)c1c(O)cc(C)oc1=O,5.5,9.1,-0.4%,0.2,-0.7,-3.6
Cc1cc(CN2C(=O)c3ccccc3C2=O)no1,-17.5,0.2,-1.9%,-0.2,11.7,-3.5
O=C(c1ccccc1)c1ncc[nH]1,2.8,7.6,-0.1%,-0.7,4.8,1.0
CCN(CC)C(=O)C1=C(C)N(CCC2=CCCCC2)C(=O)C(CC(=O)NCCCCc2ccccc2)C1 (stereo unspecified),-2.3,0.1,0.9%,0.7,1.9,-8.6
O=C(CSc1ccc(Cl)cc1)N1CCCC1,-1.5,nt,-1.0%,0.9,0.2,0.7
CCc1ccc(NC(=O)C/C(C)=N/NC(=O)OCc2ccc(OC)cc2)cc1,9.1,0.2,-0.5%,1.1,0.0,-1.5
Cn1c(=O)c2c(ncn2CC(=O)OCC(=O)c2ccc(Br)cc2)n(C)c1=O,-19.9,-0.5,1.8%,-0.6,1.6,-4.6
Cn1c(N)c(C(=O)COC(=O)CCc2ccccc2)c(=O)n(C)c1=O,0.6,-10.2,0.2%,-1.4,1.1,-6.8
COc1ccc(NC(=O)C2CCN(C(=O)C3CC(=O)N(c4ccc(C)cc4)C3)CC2)cc1 (stereo unspecified),-2.7,0.0,0.6%,-0.1,22.5,2.7
C[C@H](NC(=O)N1CCn2c1nc1ccccc12)C(=O)NCc1ccccc1,-0.3,3.4,2.4%,-0.6,0.6,0.6
Cc1ccccc1C(=O)Nc1nnc(S(=O)(=O)N2CCCCCC2)s1,-1.4,-11.8,6.6%&-0.3%,-0.1&-0.1,9.5,-2.5
Cc1ccc(F)cc1S(=O)(=O)NCc1ccc(N2CCN(C)CC2)cc1,-8.4,0.1,-0.8%,0.1,4.9,-2.9
N#C/C(=C\C1CC2C=CC1C2)c1nc2ccccc2[nH]1 (stereo unspecified),-21.0,-13.2,1.8%,0.6,-6.9,1.2
O=C(CCc1nc2sc3c(c2c(=O)[nH]1)CCCC3)NCCOc1ccccc1,-19.3,1.2,4.6%,0.4,-2.5,2.7
O=C(OC(C(=O)NCc1ccccc1)c1ccccc1)c1ccco1 (stereo unspecified),0.7,-20.1,0.9%,0.2,-6.4,2.0
Clc1ccc(-c2c[n+](Cc3ccc(Cl)cc3Cl)c3n2CCCCC3)cc1,-5.0,-2.5,?,2.0,-4.8,0.9
COc1ccccc1C(=O)NCCC(=O)N(C)CC(=O)Nc1ccccc1Br,-9.2,-1.4,3.9%,0.0,-3.2,-2.0
CC(=O)c1cccc(NC(=O)c2ccc(S(=O)(=O)N3CCCC3)cc2)c1,-9.4,-0.7,-0.1%,1.0,1.3,-1.2
Cn1cccc1C(=O)N1CCN(c2cccc(C(F)(F)F)c2)CC1,-10.9,-6.3,28.8%[38.3 µM],-0.4,-14.9,-2.4
CSCC[C@@H](Nc1nc(-c2ccccc2)nc2c1oc1ccccc12)C(=O)O,-5.2,-15.2,0.8%[38.3 µM],-0.5,-4.2,-1.0
CN(C)S(=O)(=O)c1ccc(/C(O)=C2/C(=O)C(=O)N(CCN3CCCCC3)C2c2cccnc2)cc1 (stereo unspecified),-2.1,4.5,-0.2%,nt,-0.4,0.8
COC(=O)c1ccc(C(=O)Nc2ccc3c(c2)C(=O)NC3=O)cc1,-1.2,-11.3,5.7%,-0.1,-0.2,0.0
COc1ccc(/C=C/c2c(-c3ccc(OC)cc3)oc3ccccc23)cc1,-6.2,33.6,1.3%,0.1,24.5,-1.7
COc1cc(C(C)=O)ccc1OCC(O)CN1CCN(c2ccc(F)cc2)CC1 (stereo unspecified),-5.3,-0.4,1.6%,0.3,-6.6,-1.0
CCOC(=O)c1c(C)[nH]c2ccc(O)cc12,-3.7,-9.2,-0.5%,-0.5,-12.2,-3.9
CCOC(=O)C(=O)NC(C)c1ccccc1 (stereo unspecified),-1.9,3.0,1.0%,-0.6,6.4,1.5
Cc1noc(C)c1S(=O)(=O)N(C)CC(=O)NCc1ccccc1,-9.9,7.7,1.4%,-0.7,8.4,-1.9
CCc1cc2c(=O)c(-c3nc(C)cs3)coc2cc1OC(C)C(=O)NCCO (stereo unspecified),2.7,-0.4,-0.2%,0.5,8.2,-1.9
COc1cccc(-c2nc(Oc3cccc(C)c3C)c3ccccc3n2)c1O,-15.6,-4.8,7.4%,-0.3,-2.9,-2.5
COc1ccc(N(CC(O)CN2C(=O)NC(C)(C)C2=O)S(=O)(=O)c2ccc(C)cc2)cc1 (stereo unspecified),-7.3,-1.2,-2.0%,-1.0,3.9,-1.1
C=CCSc1nc2c(cnn2-c2ccccc2)c(=O)n1N,1.0,-5.2,-1.3%,1.5,-1.2,-2.6
COc1ccccc1NC(=O)C(C)OC(=O)CCNS(=O)(=O)c1ccc(C)c(C)c1 (stereo unspecified),-27.8,7.9,-0.9%,0.3,0.6,-4.9
CCOC(=O)c1cccc(NC(=O)c2ccc(NC(=O)c3ccco3)cc2)c1,-4.4,-0.8,3.5%,0.1,-2.9,1.2
CSc1ccc(Cl)c(C(=O)N2CCOc3ccccc32)c1,-1.0,nt,-0.4%,0.6,-5.6,4.4
Cc1ccccc1NCc1ccccc1O,-4.1,-2.6,15.0%,0.1,-0.6,1.1
CCOC(=O)c1sc(N(Cc2ccccc2)C(=O)CSc2ncn[nH]2)nc1C,-0.4,24.9,4.4%,2.4,4.5,5.9
COc1cccc(Nc2nc3ccccc3nc2NS(=O)(=O)c2cccs2)c1,-0.7,-7.1,9.6%,7.1,8.5,1.5
Cc1nonc1OCCn1c([N+](=O)[O-])cnc1C,-4.5,3.7,-2.2%,2.7,5.8,-4.6
COc1cc(C(C)=O)ccc1OCC(=O)Nc1ccc(C)c(S(=O)(=O)N2CCCCCC2)c1,6.4,-21.7,0.2%,1.1,-12.5,5.6
Cc1c(Br)c([N+](=O)[O-])nn1CC(=O)Nc1nccs1,-3.3,-0.7,2.0%,-0.5,-2.4,-2.1
CCOc1cc(CNCc2ccncc2)cc(Cl)c1OC,11.1,-5.2,-1.6%,0.0,-4.8,-1.8

# Bioassay records from PubChem BioAssay.
